HIV Env fusion: inhibitors of HIV Env-mediated cell fusion. HeLa-JRFL Env/CEM21 cell fusion, luciferase. inhibition, % at 12.3 µM. 360,000 compounds, 1.1% hits. AID 651610;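 active = mean replicate inhibition score of at least 50 and every replicate individually at or above 50; inconclusive = only one of the two criteria met; inactive = mean below 50 and not all replicates reaching 50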;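 also: 0% = plate neutral controls and 100% = maraviroc near 300 nM; one replicate is shown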
Yeast UUG start: yeast start codon fidelity modulation | S. cerevisiae UUG-firefly luciferase reporter, luminescence/redox ratio | activity score, % at 18.7 µM | 350,000 compounds, 0.13% hits | AID 602363;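 active = replicate mean at a twofold rise or more, about +100% in these data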;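 also: firefly luciferase made from a UUG start codon reports start codon fidelity; reporter light over untreated wells divided by growth signal over untreated wells; some hits fall short of that in this replicate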
PABP FP inh: blocks human PABP binding to poly(A) RNA; P11940; fluorescence polarization; inhibition, % at 35 µM; 290,000 compounds, 1% hits;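 active = 50% or more with normal probe brightness, or confirmed in later tests; inconclusive = above 50% with abnormal brightness, or retests that disagree; inactive = below 50% or failed in later tests; about a fifth of its hits are not listed in these tables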;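 also: calls also rest on retests at 20 µM and on dose response follow-up; controls were probe without protein and protein plus probe with vehicle; some compounds called inactive have numbers as strong as hits; many hits fall short of the cut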
Target sequence (P11940 whole entry, looked up): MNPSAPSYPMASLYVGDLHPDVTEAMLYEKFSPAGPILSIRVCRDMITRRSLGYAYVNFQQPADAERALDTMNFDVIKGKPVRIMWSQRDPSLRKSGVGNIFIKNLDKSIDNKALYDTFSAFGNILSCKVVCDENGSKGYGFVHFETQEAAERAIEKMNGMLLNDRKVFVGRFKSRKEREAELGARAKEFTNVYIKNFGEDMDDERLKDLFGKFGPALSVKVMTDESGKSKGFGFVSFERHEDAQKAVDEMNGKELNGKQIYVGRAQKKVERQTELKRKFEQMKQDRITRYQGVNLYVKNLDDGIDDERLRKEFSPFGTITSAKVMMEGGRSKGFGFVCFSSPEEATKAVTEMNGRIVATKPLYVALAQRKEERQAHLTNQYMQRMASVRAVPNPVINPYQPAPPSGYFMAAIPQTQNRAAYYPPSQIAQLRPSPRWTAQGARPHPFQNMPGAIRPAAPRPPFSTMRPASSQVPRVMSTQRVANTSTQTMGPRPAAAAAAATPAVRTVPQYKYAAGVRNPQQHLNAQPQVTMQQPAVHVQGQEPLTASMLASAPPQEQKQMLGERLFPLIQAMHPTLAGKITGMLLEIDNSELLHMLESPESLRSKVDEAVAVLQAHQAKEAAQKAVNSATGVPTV
Rce1 inhib: yeast Ras-converting enzyme inhibition; calls only; Q03530; yeast membranes, quenched prenylated peptide cleavage fluorescence; 290,000 compounds, 0.27% hits; AID 2563;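 active = fall in fluorescence gain of 50% or more versus controls, with final raw signal at or below 3038400; inconclusive = same 50% fall but final raw signal above 3038400; inactive = fall in fluorescence gain under 50%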;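 also: plate controls were neutral control wells for no effect and wells lacking membranes for full effect; tested at 10 µM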
MT1-MMP act inh: inhibitors of human MT1-MMP activation; GFP/RFP ratio change, % at 20 µM; AID 651647; 360,000 compounds, 0.061% hits; HT1080 RFP-PRO-GFP cells, GFP/RFP ratio fluorescence, overnight; percent of plate control window, DMSO zero; P50281;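 active = GFP/RFP ratio change of at least 30% with cell ATP level not reduced by more than half and red fluorescence within 50% of control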; also: strong numbers were not always called active
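Material – HT1080 RFP-PRO-GFP cells · Control set – DMSO wells and RFP-L50D-GFP cells · Incubation – overnight cell settling, then overnight compound exposure, 37 °C, 5% CO2 · Compound dosing – single-point 20 µM compound, 1% DMSO · Read-out – GFP/RFP fluorescence ratio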
eIF4H FP inh: inhibitors of RNA binding by human eIF4H | Q15056 | eIF4H fluorescence polarization binding assay | inhibition, % at 35 µM | 290,000 compounds, 0.94% hits | AID 2012;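 active = 50% or more with normal probe brightness, or confirmed in later tests; inconclusive = above 50% with abnormal brightness, or retests that disagree; inactive = below 50% or failed in later tests; about a fifth of its hits are not listed in these tables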;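 also: calls also rest on retests at 20 µM and on dose response follow-up; 0% = protein and probe with vehicle and 100% = probe without protein; strong numbers were not always called active; many hits fall short of the cut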
CSC inhib: blocks cancer stem cells; cancer stem cell-like cells viability, luminescence; inhibition, % at 7.5 µM; 300,000 compounds, 1.1% hits; AID 2717;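 active = mean at 75% or more and at least half the replicates too; inconclusive = mean and replicates disagree; tested in HMLE shEcad cells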;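 also: 0% = median of negative and 100% = median of positive control wells; the first replicate is given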
eIF4H FP inh retest: second read-out of eIF4H FP inh, no call of its own (marks repeat the call); inhibition, %; compound at 20 µM; confirmation average;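 mean of two retest wells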
PABP FP inh retest: also measured in PABP FP inh; calls as there; inhibition, %; compound at 20 µM; confirmation repeats;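 mean of two retest wells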
MT1-MMP act inh RFP: further read-out of MT1-MMP act inh, marked with its call; RFP signal change, %; measured here: RFP expression control read;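 0 = vehicle wells; hits needed this value within 50% of zero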
* hit, by the source's call; i = inactive; ? = inconclusive; . = not tested or not shown. This is a subset; count on the stated rates, not on these rows.

SMILES | HIV Env fusion | Yeast UUG start | PABP FP inh | Rce1 inhib | MT1-MMP act inh | MT1-MMP act inh RFP | eIF4H FP inh | CSC inhib | others
COc1ccc(NC(=O)C23CC4CC(C2)CC(n2cnc(Br)n2)(C4)C3)cc1Cl | 4 | . | 2 | i | 6 | -1 | -1 | -3
C=CCn1c(=O)[nH]c2cc(C(=O)N3CCN(c4ccc(C(C)=O)cc4)CC3)ccc2c1=O | ? | 7 | -16 | i | 4 | -17 | 56 | . | eIF4H FP inh retest=37;PABP FP inh retest=39
Cc1noc(NS(=O)(=O)c2ccc(NC(=O)c3ccc(N(C)C)cc3)cc2)c1C | . | -3 | . | . | 1 | -1 | . | -2
COc1cc(C(=O)NCC(=O)NCCCSc2ccccc2)cc(OC)c1OC | . | -32 | . | . | -1 | 0 | . | -15
Cc1ccc(S(=O)(=O)N2CCOCC2)cc1NC(=O)c1cc(-c2ccccn2)nc2ccccc12 | -31 | -5 | -6 | . | 6 | 2 | 5 | -8
O=C(COC(=O)CNC(=O)c1sc2ccccc2c1Cl)NC1CCS(=O)(=O)C1 (stereo not given) | . | -7 | . | i | 0 | 2 | . | -6
CCC1CCC/C1=N\NC(=O)c1ccc(Cl)cc1 (stereo not given) | -6 | . | . | . | 3 | 4 | . | 8
Cc1nn2c(Nc3ccccc3)c3c(nc2c1-c1ccccc1)CCC3 | 1 | -12 | -4 | i | 2 | -8 | 1 | 5
COC(=O)CCN1CCN(S(=O)(=O)c2ccccc2Br)CC1 | 0 | . | 6 | i | 4 | 4 | 14 | -9
C=CCC[C@@H](Cc1ccc(F)cc1)C(=O)OC[C@H]1CCCN1C(=O)[C@@H](CC=C)CC(=O)N[C@H](CO)Cc1ccccc1 | -31 | 5 | . | . | -2 | -13 | . | 0
O=C1C=C(N2CCOCC2)CO1 | -10 | -3 | . | i | 2 | 2 | . | -8
Cc1ccc(C)c2sc(NC(=O)C3CC3)nc12 | . | -5 | 11 | i | -5 | -9 | -10 | -3
CC1(C(=O)O)CCC(C(=O)NC2CCCCC2)C1(C)C (stereo not given) | . | -14 | 0 | i | 7 | 2 | -4 | -1
CCCOc1ccc(-c2c(C(=O)N/N=C(\C)COc3ccccc3)nnn2-c2nonc2N)cc1 | -2 | -16 | -4 | i | -7 | -1 | -10 | 12
CC(C)c1ccc(CC(=O)N2CCC2(C)C(=O)Nc2ccc3c(c2)OCCO3)cc1 (stereo not given) | 14 | -12 | . | . | 3 | -3 | . | .
CC[C@H](C)[C@H]1CNC(=O)C(=O)N1CC1CCN(CCc2ccccc2)CC1 | -20 | -16 | . | . | 1 | 5 | . | .
Cc1ccc(C(=O)CC2(O)C(=O)N(CCc3ccccc3)c3ccc(Br)cc32)o1 (stereo not given) | . | -20 | 5 | i | -1 | -3 | -5 | 33
COc1cc(C(=O)Nc2nnc(CC(=O)NCc3ccccc3)s2)cc(OC)c1OC | -8 | -11 | -2 | i | 6 | -1 | -15 | -24
C#CCOCCOCCOCCNc1nc(N2CCN(C(=O)[C@H]([C@@H](C)CC)n3cc([C@@H](N)CC(C)C)nn3)CC2)nc(N2CCN(C(=O)[C@H]([C@@H](C)CC)n3cc([C@@H](N)CC(C)C)nn3)CC2)n1 | -7 | -11 | 18 | i | 6 | 6 | 12 | .
O=S(=O)(c1cnccc1N1CCN(/N=C/c2ccc(Cl)cc2)CC1)N1CCCCC1 | . | -5 | -11 | i | 5 | -6 | 3 | 15
Nc1cc(N)nc(SCC(=O)Nc2cc(S(=O)(=O)N3CCOCC3)ccc2Cl)n1 | 8 | -18 | 9 | i | 1 | -5 | -13 | -1
CCN1CCN(CCCOc2ccc(-c3ccccc3)cc2)CC1 | . | . | 3 | i | . | . | 6 | 125*
Cc1ccc2cc3c(N)c(C(=O)N4CCOCC4)sc3nc2c1 | -272 | . | 37 | i | -4 | 0 | 0 | -2
Cc1cc(C)cc(NC(=O)C(OC(=O)c2sccc2C)c2ccccc2)c1 (stereo not given) | -3 | . | 4 | i | -9 | -6 | 6 | 8
COc1cccc2c1cc1c(=O)n(CC(=O)NCCCN3CCN(C)CC3)nc(C)n12 | 0 | -5 | 5 | ? | 0 | 3 | -10 | -1
(cont.)
SMILES | HIV Env fusion | Yeast UUG start | PABP FP inh | Rce1 inhib | MT1-MMP act inh | MT1-MMP act inh RFP | eIF4H FP inh | CSC inhib | others
CCc1nc2c(OCC(=O)C(C)(C)C)cccn2c1N(C=O)Cc1ccc(OC)cc1 | -1 | -18 | . | . | 3 | 2 | . | .
CCn1c(O)c(C=NC2CCCC(C)C2C)sc1=S (stereo not given) | -46 | . | 4 | i | -4 | -22 | -9 | 33
O=C(O)CCC(=O)Nc1ccccc1C(=O)NCCc1ccccc1 | -9 | . | -10 | i | 3 | -1 | -3 | -13
Cn1cccc1CNC1CCCC1 | . | -3 | 10 | i | 0 | 6 | 12 | -10
N=C1/C(=C/c2ccco2)C(=O)N=C2SC(CC(=O)N3CCCC3)=NN12 | 2 | -13 | 48* | i | 1 | 4 | 79* | -5 | eIF4H FP inh retest=87*;PABP FP inh retest=76*
c1cncc(-c2nc(NCCCN3CCOCC3)c3c4c(sc3n2)CCC4)c1 | 2 | . | 6 | i | 3 | -2 | 0 | -20
Cc1ccc(S(=O)(=O)N/N=C/c2ccc(OCC(=O)Nc3ccccc3Cl)cc2)cc1 | ? | 25 | -1 | i | 2 | 3 | 3 | -5
CN(C)C(=S)Nc1ccc(Br)c(Cl)c1 | 12 | . | 7 | i | 2 | -1 | -6 | -1
O=C(O)COc1ccccc1/C=C1\C(=O)Nc2ccc(Br)cc21 | 18 | 3 | 27 | i | -6 | 0 | -11 | -9
N=c1ccn(Cc2ccc(F)cc2)cc1 | -4 | -3 | 6 | i | -1 | -2 | -12 | -3
CC1CCN(C(=O)CCCN2C(=O)c3cccnc3Oc3ccc(Cl)cc32)CC1 | 7 | -7 | 6 | i | 1 | -2 | -14 | -7
COc1ccc(C(OC(=O)c2ccco2)C(=O)NC2CCCCC2)cc1 (stereo not given) | -53 | -13 | -4 | . | 4 | 8 | -12 | -2
O=C(Nc1ccc2c(c1)CCC2)c1cnc(Cl)c(Cl)c1 | -65 | . | 3 | i | -6 | -1 | 5 | 0
COc1ccc(NC(=O)c2ccc(Cl)c(NC(=O)c3ccncc3)c2)cc1 | . | . | 1 | i | . | . | -9 | -9
CNC(=O)c1nnsc1S(=O)c1ccc(Cl)cc1 (stereo not given) | -2 | . | -17 | i | -17 | -19 | -5 | .
CCNc1nc(Oc2ccc(C(=O)OC)cc2)nc(N2CCOCC2)n1 | 5 | 13 | -3 | i | -2 | 3 | -7 | -9
CCCCn1c(=O)[nH]c(=O)c2c1nc(CN1C(=O)c3ccccc3S1(=O)=O)n2CCC | . | 8 | 5 | i | -6 | 3 | 4 | 1
CC(=O)c1ccc(OCc2cc(C(=O)N3CCN4CCCC4C3)no2)cc1 (stereo not given) | . | -2 | 6 | i | 1 | 0 | 2 | -4
COCC(C)n1c(C)cc(C(=O)CSc2nc(C)c(C)c(C)n2)c1C (stereo not given) | -3 | . | -2 | i | -3 | -3 | 3 | -2
CCOC(=O)CNC(=O)CNC(=O)c1nn(-c2ccc(OC)c(OC)c2)c(=O)c2ccccc12 | 7 | -11 | 2 | i | -3 | 0 | 10 | -1
Cc1ccc(S(=O)(=O)N(C)C)cc1NC(=O)COC(=O)C1CC1 | -18 | 15 | . | i | 0 | 1 | . | -3
Cc1ccc(C(CNC(=O)Nc2ccc(Cl)cc2)N2CCN(C)CC2)cc1 (stereo not given) | -1 | -6 | 10 | i | -5 | 2 | -16 | -2
NNC(=S)NCc1ccc2c(c1)OCO2 | 1 | . | -3 | i | -1 | 3 | -8 | -8
CCOc1ccc(C(=O)Nc2ccc3c(c2)OCCO3)cc1[N+](=O)[O-] | 5 | . | -10 | i | -1 | -2 | 3 | .
COc1cc(OC)nc(NC(=O)NS(=O)(=O)c2ccccc2Cl)n1 | 0 | 1 | -2 | i | 3 | -1 | 4 | -17
Further structures follow.
SMILES | HIV Env fusion | Yeast UUG start | PABP FP inh | Rce1 inhib | MT1-MMP act inh | MT1-MMP act inh RFP | eIF4H FP inh | CSC inhib | others
Cc1ccc(NC(=O)NC2(C(=O)NCc3ccccc3)CCCCC2)cc1 | . | -6 | 5 | i | 2 | -5 | -5 | 7
COc1ccc(Oc2cc(C)c3cccc(C)c3n2)cc1 | . | 2 | -8 | i | -2 | -1 | -5 | 5
CC(C)CCn1c(SCC(=O)c2ccccc2)nc2c1c(=O)[nH]c(=O)n2C | . | -3 | -3 | i | -9 | -4 | -1 | -6
CCN(CC)C(=O)c1cccc2nc3ccccc3nc12 | 5 | -23 | 14 | i | -2 | 11 | 32 | -9
Cc1c(=O)n(OCc2cccc(F)c2)c2ccccc2[n+]1[O-] | -118 | 3 | -1 | i | -129 | 4 | -7 | 6
CC(=O)N1CCN(CC(=O)Nc2ccc(C)c(S(=O)(=O)N(C)C)c2)CC1 | -4 | . | 20 | i | -3 | -6 | 17 | -8
COc1ccc(CC(=O)Nc2cc(S(=O)(=O)N3CCCCC3)ccc2C)cc1OC | 29 | . | 6 | i | 4 | -25 | 3 | -2
CC(Sc1nnc(-c2ccncc2)n1C)C(=O)NCC(=O)Nc1ccc(F)c(F)c1F (stereo not given) | -14 | -6 | . | . | 2 | 3 | . | .
O=C1CC(c2cccs2)c2cc3c(cc2N1)OCCO3 (stereo not given) | 16 | . | -7 | i | -4 | -6 | 6 | 17
CC(=O)ONC(=Nc1ccccc1)c1nonc1N | -2 | . | -5 | i | -2 | 4 | -6 | -16
CCCN(CCC)C(=O)Cn1c2ccccc2c2nc(=O)cc(C)n21 | -38 | -12 | 2 | i | -2 | 2 | -16 | -13
O=C(N/N=C/c1ccc(O)cc1)c1nc(-c2ccccc2)n(-c2ccccc2)n1 | 1 | 4 | 1 | i | 4 | 3 | -4 | 1
Cc1ccccc1N(C(=O)c1csnn1)C(C(=O)NC(C)(C)C)c1cccs1 (stereo not given) | 15 | 13 | -12 | i | 6 | 3 | -10 | -32
COc1ccc(-c2nc(SC)n(S(=O)(=O)c3ccccc3)n2)cc1 | . | 36 | -6 | i | 6 | 6 | -8 | 1
O=C(NCc1ccc(/C=N\NC(=O)C(=O)Nc2ccccc2Br)o1)C(=O)Nc1ccccc1 | -15 | -24 | -7 | i | -2 | 3 | 22 | 34
CCOC(=O)N1CCN(c2cc(=O)n(-c3ccc(Br)cc3)c(=O)[nH]2)CC1 | 17 | -3 | -14 | i | -2 | 4 | -6 | -9
O=C(NCc1ccccc1Cl)C1CCN(c2cnccn2)CC1 | -6 | . | 4 | i | 0 | -5 | -8 | 0
Cc1ccc(OCC(=O)Nc2ccccc2N2CCOCC2)c(C)c1 | . | -8 | 6 | i | -6 | -7 | -4 | -2
CCOCCCNC(=O)c1ccc2c(c1)N(Cc1ccccc1)C(=O)CS2=O (stereo not given) | 0 | 9 | -2 | i | 0 | 4 | 3 | -3

Pulled by structure from the list above:
SMILES | HIV Env fusion | Yeast UUG start | PABP FP inh | Rce1 inhib | MT1-MMP act inh | MT1-MMP act inh RFP | eIF4H FP inh | CSC inhib | others
CC(Sc1nnc(-c2ccncc2)n1C)C(=O)NCC(=O)Nc1ccc(F)c(F)c1F (stereo not given) | -14 | -6 | . | . | 2 | 3 | . | .
COc1ccc(Oc2cc(C)c3cccc(C)c3n2)cc1 | . | 2 | -8 | i | -2 | -1 | -5 | 5
CC(=O)ONC(=Nc1ccccc1)c1nonc1N | -2 | . | -5 | i | -2 | 4 | -6 | -16

Compound activity as filed in PubChem.
